Source: PubChem BioAssay (several laboratories)
Mtb growth = M. tuberculosis H37Rv growth inhibitors, H37Rv strain (AID 1626); M. tuberculosis H37Rv growth inhibition; higher % means a stronger effect; 220,000 tested, 0.95% active; inhibition, % at 10 µM, or IC50 in µM where a hit was titrated;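 active = confirmed in a dose series; inconclusive = inhibition above 80% but not taken into the dose series; inactive = below 80% or under 30% at every dose of the series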;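 note: bacteria incubated seven days before Alamar blue readout; 0% = bacteria only wells and 100% = bacteria with antibiotic wells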
Arbovirus anti = antivirals against arbovirus infection | arbovirus infection cell-based antiviral screen | inhibition, % at 10 µM | 200,000 tested, 0.37% active | AID 1251;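 active = inhibition from about 30%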;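 note: bluetongue infection of BSR cells; cell survival read as ATP light after 72 h; 0% = infected wells without compound and 100% = uninfected wells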
Mtb betalactam = beta-lactam sensitization of Mtb H37Rv; M. tuberculosis H37Rv growth with meropenem, percent inhibition; hits of this screen are not shown here; inhibition, % at 25 µM; 330,000 tested, 0.27% active; AID 434955;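 active = about 74% or more and at least 40 points above the plate without the antibiotic, then above 30% in a dose series; inconclusive = first-round hits that could not be retested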;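 note: growth measured after seven days incubation then overnight dye step; 0% = bacteria only wells and 100% = bacteria with antibiotic; twin plates without the antibiotic show which effects depend on it; some results filed as inactive read as strong as hits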
YopH PTP inh = YopH (Yersinia) phosphatase inhibition; fluorescence Ex485/Em525; inhibition, %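 (about 10 µM by stock and volumes)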; 140,000 tested, 0.16% active; AID 898;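 active = inhibition of 50% or more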;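 note: controls were vehicle for no effect and minimum signal wells for full effect; inactives centre near -20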
RecA splice inh = inhibitors of M. tuberculosis RecA intein splicing | 290,000 tested, 0.75% active | cell-free RecA intein splicing, fluorescence | P9WHJ3 | inhibition, %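 (about 9 µM by stock and volumes)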; in the data active = inhibition above about 30%; inconclusive = no clear call, values can overlap the other calls;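 note: 0% = vehicle wells and 100% = reference inhibitor control wells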
Target sequence (P9WHJ3 whole entry, looked up, canonical isoform): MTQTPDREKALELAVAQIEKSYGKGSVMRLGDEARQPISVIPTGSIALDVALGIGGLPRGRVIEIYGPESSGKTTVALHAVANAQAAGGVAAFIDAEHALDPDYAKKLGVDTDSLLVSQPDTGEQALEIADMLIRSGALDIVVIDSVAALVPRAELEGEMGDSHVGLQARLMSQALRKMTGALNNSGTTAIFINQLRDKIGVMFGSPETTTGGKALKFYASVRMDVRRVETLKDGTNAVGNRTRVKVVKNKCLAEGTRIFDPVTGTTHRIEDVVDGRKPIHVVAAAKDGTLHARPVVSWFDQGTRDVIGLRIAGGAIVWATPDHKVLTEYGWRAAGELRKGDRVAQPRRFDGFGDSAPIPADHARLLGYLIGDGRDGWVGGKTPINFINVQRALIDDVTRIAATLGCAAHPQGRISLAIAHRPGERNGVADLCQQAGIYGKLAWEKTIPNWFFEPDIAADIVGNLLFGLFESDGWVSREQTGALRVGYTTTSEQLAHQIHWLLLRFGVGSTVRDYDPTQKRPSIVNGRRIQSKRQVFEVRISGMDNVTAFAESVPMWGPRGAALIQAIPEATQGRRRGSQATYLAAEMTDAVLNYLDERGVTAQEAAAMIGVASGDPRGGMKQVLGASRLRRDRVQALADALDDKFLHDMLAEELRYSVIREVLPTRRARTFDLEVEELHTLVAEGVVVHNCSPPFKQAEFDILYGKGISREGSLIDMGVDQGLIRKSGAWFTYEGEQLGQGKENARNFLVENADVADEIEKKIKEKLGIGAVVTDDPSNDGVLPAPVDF
Arbovirus anti repeat = further read-out of Arbovirus anti, marked with its call; inhibition, %; measured here: 10K subset replicate screen; many hits read low in the repeat;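 first of two repeat runs on a subset; 0% = infected and 100% = uninfected wells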
The depositor's hits bear a star; ? = inconclusive; / = not tested or not shown.

SMILES	Mtb growth	Arbovirus anti	Mtb betalactam	YopH PTP inh	RecA splice inh	others
C/C(CCc1ccccc1)=N\NC(=O)c1ccccc1[N+](=O)[O-]	-9%	-1	-9	-22	-2.7
CCN(CC)c1ccc(N2C(=O)c3ccccc3C2=O)cc1	4%	6	-13	-17	0.7
Cn1c(NC(=O)c2ccc(Cl)cc2Cl)cc(=O)n(C)c1=O	-4%	1	0	-26	1.3	Arbovirus anti repeat=1
COc1ccc(/C=C/C(=O)O)cc1S(=O)(=O)N1CCCC1	/	/	-12	/	-0.5
CC1Oc2ccccc2N(CC(=O)N2CCCCC2)C1=O (stereo unspecified)	/	/	3	/	-1.7
COc1ccc(C)cc1NC(=O)CSc1nnc(-c2ccc(C)cc2)o1	?	-5	83	-26	-2.4	Arbovirus anti repeat=2
Cc1ccc(S(=O)(=O)N2CCCC(C(=O)N3CCN(C)CC3)C2)cc1 (stereo unspecified)	/	/	-10	/	-0.2
CCNc1nc(NCC)n2c(SC(C)C(=O)c3ccc(C)cc3)nnc2n1 (stereo unspecified)	2%	8	-3	-1	-2.2
Cc1ccc(NC(=O)CNC(=O)C2CCCCC2)nc1	/	/	-14	/	-2.0
Oc1ccc(/C=N/NC(=S)NCc2ccco2)cc1	3%	-3	43	2	1.7
O=C(Cn1cnc([N+](=O)[O-])n1)N/N=C/c1ccccc1O	2%	4	23	-57	-6.0
O=C(CCC(=O)N1CCCC1)N1CCCC1	/	/	2	/	-1.7
O=C(Nc1cccnc1)c1cc(-c2ccc(Cl)cc2Cl)on1	/	/	0	/	3.9
O=C1c2ccccc2C(O)N1c1cccnc1 (stereo unspecified)	-1%	6	-1	-43	0.6
COc1ccccc1CC(=O)Nc1cc(C)ccn1	/	/	-8	/	2.2
N#CC1=C(N)N2C(=C(C#N)C1c1ccc(Br)cc1)Nc1ccccc12 (stereo unspecified)	11%	-9	7	-9	-11
C[n+]1nc(Nc2ccccc2)sc1-c1ccc(O)cc1	/	/	-7	/	2.0
CC1CCCC(C)N1CCNC(=O)CCn1nc(-c2ccccc2)ccc1=O (stereo unspecified)	/	7	-5	-32	-0.8
O=C1c2ccccc2C(=O)N1CN(C(=O)c1ccccc1)c1ccc(O)cc1	-1%	2	-6	/	-1.1
Cc1ccc(NS(=O)(=O)c2cccc(C(=O)NCCc3c[nH]c4ccccc34)c2)c(C)c1	10%	-14	4	-34	9.8
CS(=O)(=O)c1nc(-c2ccccc2)c(-c2ccccc2)[nH]1	-2%	6	-1	-24	1.0
Cc1nn(-c2ccccc2)c(Cl)c1/C=C1\SC(=S)N(C)C1=O	-3%	-9	3	-28	0.7
COc1cc(NC(=O)COc2ccc(C)c(C)c2)ccc1NC(=O)c1ccco1	/	/	8	/	5.9
O=C(Nc1ccc(N2CCCC(O)C2)cc1)c1snc2c(=O)[nH]cnc12 (stereo unspecified)	3%	8	5	-14	-1.0
CCOC(=O)c1c(C)[nH]c(C)c1S(=O)(=O)N1CCN(C(=O)c2ccco2)CC1	/	/	7	/	-0.7
Cc1ccc2oc(C(=O)NCC3CCOCC3)c(C)c2c1	/	/	-20	/	-1.1
Cc1ccc2cc(COC(=O)C3CCCO3)c(=O)[nH]c2c1 (stereo unspecified)	-8%	-2	3	-20	-2.1
Cc1ccc(C2(c3noc(CN(C)Cc4ccccn4)n3)CCCC2)cc1	-4%	11	44	/	-1.2
COc1ccc(S(=O)(=O)N2CCOC2CNC(=O)C(=O)NCCCN(C)C)cc1C (stereo unspecified)	/	/	-4	/	0.4
O=C(Cc1n[nH]c(=O)[nH]c1=O)N/N=C/c1cccc(O)c1	-8%	-3	-1	-19	-4.4

Structural class: the entries above with an aryl thioether with sulfur outside any ring
SMILES	Mtb growth	Arbovirus anti	Mtb betalactam	YopH PTP inh	RecA splice inh	others
COc1ccc(C)cc1NC(=O)CSc1nnc(-c2ccc(C)cc2)o1	?	-5	83	-26	-2.4	Arbovirus anti repeat=2
CCNc1nc(NCC)n2c(SC(C)C(=O)c3ccc(C)cc3)nnc2n1 (stereo unspecified)	2%	8	-3	-1	-2.2

(cont.)
SMILES	Mtb growth	Arbovirus anti	Mtb betalactam	YopH PTP inh	RecA splice inh	others
O=C(N/N=C/c1cccnc1)c1cccc(NC(=O)c2ccccc2Cl)c1	/	/	2	/	-0.8
O=C(N/N=C/c1ccc(Br)s1)c1cccnc1	?	1	99	/	-0.4
COc1cccc(C(=O)NNC2OC(CO)C(O)C2O)c1 (stereo unspecified)	1%	-4	-5	/	-5.7
Nc1scc[n+]1Cc1cccc2cccnc12	-7%	/	-2	/	-14
CC(=O)Nc1ccc(NC(=O)CSc2nnc(-c3cc(C)[nH]n3)n2N)cc1	/	/	7	/	0.2
COc1cc(CN(C2CCCCC2)S(=O)(=O)c2ccc(S(=O)(=O)N(C)C3CCCCC3)cc2)cc(OC)c1OC	10%	2	9	-8	0.2
O=C(Nc1ccc(O)c(-c2nc3ccccc3s2)c1)C1=COCCO1	12%	7	7	-24	-79
CC(=O)N1CCCN(Cc2cn(-c3cc(C)ccc3C)nc2-c2ccccc2)CC1	-8%	4	1	/	1.1
O=C(CCS(=O)(=O)c1ccc(Br)cc1)Nc1ccccn1	5%	2	-8	-10	-1.2
C/C(=N\NC(=O)CSc1nc2ccccc2o1)c1cccc(O)c1	2%	/	2	/	-4.1
Cc1ccc(CN2CCC(CNC(=O)Nc3ccccc3F)CC2)cc1	/	/	-1	/	-1.3
Cc1ccc(Cn2c(CN3CC(C)OC(C)C3)nc3c2c(=O)[nH]c(=O)n3C)cc1 (stereo unspecified)	-10%	5	-1	-21	3.7
COc1cc(C2SCC(=O)Nc3c2c(C)nn3-c2ccccc2)cc(OC)c1OC (stereo unspecified)	2%	-2	-11	-16	-2.9
Cn1c(CCNC(=O)c2ccco2)nc2cc(NC(=O)c3ccco3)ccc21	-6%	5	0	-36	-0.6
CCOc1ccccc1NC(=O)CN(c1ccc(C)cc1)S(=O)(=O)c1c(C)noc1C	-9%	-1	3	-12	/

Of the compounds above, 2 contain two or more sulfur atoms.
SMILES	Mtb growth	Arbovirus anti	Mtb betalactam	YopH PTP inh	RecA splice inh	others
Cc1nn(-c2ccccc2)c(Cl)c1/C=C1\SC(=S)N(C)C1=O	-3%	-9	3	-28	0.7
COc1cc(CN(C2CCCCC2)S(=O)(=O)c2ccc(S(=O)(=O)N(C)C3CCCCC3)cc2)cc(OC)c1OC	10%	2	9	-8	0.2

Remaining list, next part
SMILES	Mtb growth	Arbovirus anti	Mtb betalactam	YopH PTP inh	RecA splice inh	others
CC1CCCCC1NC(=O)CN1CCN(Cc2ccccc2Cl)C1=O (stereo unspecified)	0%	-2	-2	-25	0.2
Cc1ccc(N2CC(C(=O)N3CCN(C(=O)c4ccco4)CC3)CC2=O)cc1 (stereo unspecified)	7%	1	2	15	0.8
CCC1(c2ccc(F)cc2)NC(=O)N(CC(=O)Nc2ccc(-c3nc4ccc(C)cc4s3)cc2)C1=O (stereo unspecified)	7%	-29	56	-7	-2.2
COc1ccc(-c2ocnc2C(=O)NCc2nn(-c3ccccc3)nc2C)cc1	-10%	/	-3	/	0.1
N#C/C(=C\c1ccc(O)c(Br)c1)C(=O)NCc1ccccc1	-1%	1	1	/	0.7
O=C1c2ccccc2-c2cccc(NS(=O)(=O)c3ccc(C(F)(F)F)cc3)c21	-1%	-5	-12	-29	-0.2
COc1ccc(CCNC(=O)c2sc3nc4n(c(=O)c3c2C)CCC4)cc1	/	/	-6	/	-3.7
COC(=O)C(NC(=O)c1ccccc1)(Nc1cc(C)cc(C)n1)C(F)(F)F (stereo unspecified)	-12%	-6	-4	-10	-3.5
Cc1cc(C)nc(NC(=O)Nc2ccc3c(c2)OCO3)c1	-4%	-14	4	/	-2.5
Cc1ccc(/C=C/C(=O)Nc2ccc(S(=O)(=O)Nc3ncccn3)cc2)cc1	3%	12	2	/	-1.8
c1ccc2c(c1)ncn2Cc1nnc2sc(-c3ccncc3)nn12	-10%	4	4	-36	-1.1
Cc1ccc(NC(=O)c2c(Cl)n(C)c3ccccc23)cc1	/	-11	90	-13	0.9
COc1ccc(-c2nc3ccccc3nc2-c2ccc(OC)c(OC)c2)cc1OC	/	/	0	/	0.2
COc1ccc(C)cc1Nc1cc(C)nc2ncnn12	/	2	4	-34	3.3	Arbovirus anti repeat=-3
CCc1cccc(NC(=O)c2cc(S(=O)(=O)N(C)C)ccc2N2CCCC2)c1	4%	-2	12	/	-0.4
CCN(CC(=O)Nc1cc(Cl)ccc1C)C(=O)c1cc(S(=O)(=O)N2CCCCCC2)ccc1OC	/	/	-8	/	-3.6
COc1cc(C2SCC(=O)N2CCCN(C)C)cc(OC)c1OC (stereo unspecified)	-9%	-2	3	0	1.7
CC(C)c1ccc(N(C(=O)CNC(=O)c2ccco2)C(C(=O)NC2CCCC2)c2ccncc2)cc1 (stereo unspecified)	/	/	1	/	0.5
O=C1c2ccccc2C(=O)N1c1ccc(Cl)cc1	-6%	10	-4	8	/
COCCN(C(=O)CCC(=O)Nc1nccs1)C(C(=O)NC(C)(C)C)c1ccc(F)cc1 (stereo unspecified)	/	/	3	/	-0.6
Cc1noc(C)c1COc1ccc(C(=O)OCC(=O)Nc2cccc(S(=O)(=O)N3CCOCC3)c2)cc1	1%	-1	5	-24	1.5
Cc1cccc(NC(=O)C[n+]2cccc(C)c2)c1	/	/	-6	/	-0.8
O=C(Nc1cccc(Cl)c1)c1cnn2cccnc12	4%	11	1	-12	0.6
Cc1ccc(Nc2nc3ccccc3n3nnnc23)cc1	0%	-6	-7	/	-3.9
O=C(COC(=O)Cc1cccc2ccccc12)Nc1ccccc1-c1ccccc1	2%	-11	0	-11	20
c1ccc(-c2nc3ccccc3c3nc4ccccc4n23)cc1	6%	-2	-3	-33	-1.2
O=S(=O)(c1cccs1)n1cccn1	-6%	-2	-3	-34	1.3
COc1ccc(-c2cc([C@H]3[C@@H]4C=CCC[C@@]4(C)C(=O)N3Cc3ccccc3)ccc2F)cc1	-7%	/	-1	/	11
O=C(NCc1ccccn1)c1cc(-c2ccccc2Cl)nc2ccccc12	5%	4	-2	-23	1.4
O=C(c1ccco1)N1CCN(c2ncnc3c2oc2ccccc23)CC1	6%	-3	-8	3	1.5

Molecules above containing a cyano group, in the order listed:
SMILES	Mtb growth	Arbovirus anti	Mtb betalactam	YopH PTP inh	RecA splice inh	others
N#CC1=C(N)N2C(=C(C#N)C1c1ccc(Br)cc1)Nc1ccccc12 (stereo unspecified)	11%	-9	7	-9	-11
N#C/C(=C\c1ccc(O)c(Br)c1)C(=O)NCc1ccccc1	-1%	1	1	/	0.7

The listing continues.
SMILES	Mtb growth	Arbovirus anti	Mtb betalactam	YopH PTP inh	RecA splice inh	others
COc1ccc(Nc2nc(N)nc(CN3CCC(C)CC3)n2)cc1	-12%	-1	35	/	4.2
COc1cc(F)ccc1S(=O)(=O)NCc1cccnc1	/	/	-12	/	-0.6
CCN(Cc1ccccc1)C(c1ccc(C(F)(F)F)cc1)c1nnnn1C(C)(C)C (stereo unspecified)	0%	-2	-9	-2	-5.2
Cc1c(NC(=O)c2ccc3c(c2)C(=O)N(CC2CCCO2)C3=O)cccc1C(=O)O (stereo unspecified)	/	-1	-10	-36	-1.2
Cn1ncc(Cl)c1C(=O)N1CCN(c2ncccn2)CC1	-1%	0	4	/	-0.1
O=C(CCCn1c(=O)c2cccn2c2cccnc21)N1CCN(c2ccccc2F)CC1	/	/	-1	/	-2.2
CCOC(=O)N1CCC(Nc2c(Nc3ccc(F)cc3)c(=O)c2=O)CC1	4%	-5	14	-26	-0.9
CCOc1ccc(-n2c(=O)c3sccc3n(Cc3cccc([N+](=O)[O-])c3)c2=O)cc1	6%	-2	2	/	-2.5
CC(NC(=O)Cc1cccs1)C(c1cccs1)N1CCN(c2ccccc2)CC1 (stereo unspecified)	4%	/	2	-5	1.0
O=C(NC1CC1)c1cc(=O)c2ccccc2o1	-6%	5	-8	-9	-4.4
CN1C(=O)CSc2ccc(NC(=O)NCc3ccc(F)cc3)cc21	-17%	-16	7	/	-1.0
O=C(OCc1c(Cl)cccc1Cl)c1ccccn1	5%	-3	53	-11	0.6
COc1cc(/C=N/NC(=S)NC2CC3CCC2C3)ccc1O (stereo unspecified)	63%	/	96	/	-2.1
COc1ccc(-c2csc(NC(=O)CSCC(=O)Nc3cc(C)on3)n2)cc1OC	/	/	-3	/	-0.7
COC(=O)c1cc(C)sc1NC(=O)C1CC=CCC1C(=O)O (stereo unspecified)	-4%	9	-7	2	-0.5
NC(=O)c1cc2ccccc2o/c1=N/NC(=O)c1ccccc1	/	/	8	/	1.3
CC(/C=C1\SC(=S)N(CCC(=O)Nc2cccc(C(=O)O)c2)C1=O)=C\c1ccccc1	/	/	0	/	23
COCCNC(=O)c1ccc(-n2c(SCc3cc(F)ccc3F)nc3ccccc3c2=O)cc1	-1%	-16	5	-10	1.9
CCOC(=O)/C(=C/Nc1ccc(F)c(F)c1)[N+](=O)[O-]	-7%	/	1	/	1.1

This is a subset. The share of hits here may be higher or lower than overall.
